# Bioassay records from PubChem.
# 2A Renilla – lowers the Renilla signal of an FMDV 2A StopGo reporter; Potency, µM (series often up to 57.5 µM), for the others: at the highest dose signal change, negative = less light; HEK cells with a luciferase reporter of 2A StopGo recoding; hit rate 0.32% among 120,000; AID 1745857; active means well fitted falling curve with a large enough effect; inconclusive means small, poorly fitted or top-dose-only effect; inactive means no such curve, though single readings can be large or run the other way; also: nearly all actives have a fitted effect of over 55% in size; overnight with compound
# 2A firefly – lowers the firefly signal of an FMDV 2A StopGo reporter; hit rate 0.23% among 120,000; Potency, µM (top dose mostly 57.5 µM), for the others: at the highest dose signal change, negative = less light; HEK cells with a luciferase reporter of 2A StopGo recoding; active = well fitted falling curve with a large enough effect; inconclusive = small, poorly fitted or top-dose-only effect; inactive = no such curve, though single readings can be large or run the other way; also: nearly all actives have a fitted effect of over 60% in size; overnight with compound
# Active calls of the source: *; u = inconclusive; & = joins results of further samples; [ ] = dose if it differs, or a comment. % is scaled to controls: 0 for no effect and ±100 for the full control effect; potency is read from the fitted curve at half-maximal effect. An excerpt; the hit share may differ from the screen's.
# Screens in order: 2A Renilla | 2A firefly
CC(Sc1nc(N)cc(N)n1)C(=O)c1ccc(Cl)cc1 (stereo unspecified)
 : -3% | 3%
COc1ccc(C2C=C(c3ccc(Cl)cc3)Nc3nnnn32)c(OC)c1OC (stereo unspecified)
 : -4% | 40%[activator]
O=C(COC(=O)c1ccc(F)c(S(=O)(=O)N2CCOCC2)c1)Nc1ccccc1OC(F)F
 : -5% | 18%
COc1cc(C)cc2oc(=O)c(CC(=O)NCCc3ccccc3)c(C)c12
 : 4% | 7%
COc1ccc(-c2noc(-c3ccccc3OCC(=O)Nc3ccc(C(C)=O)cc3)n2)cc1
 : -5% | 22%
N[C@@H](Cc1ccc(N(CCCl)CCCl)cc1)C(=O)O
 : -18% | -17%[11.5 µM]
Cc1ccc(OCCC(=O)Nc2cc3c(cc2Cl)OCCO3)c(C)c1
 : 7% | 12%
O=C1c2ccccc2NC(c2cnc3ccccc3n2)N1c1ccc(F)cc1 (stereo unspecified)
 : 2% | 14%
Nc1ccc2c(c1)C(=O)OC2
 : -3% | -1%
COc1ccc(/C=C(\C#N)c2nc3ccccc3[nH]2)cc1I
 : 277%[activator] | 86%[activator]
O=C(NCc1ccccc1)C(=O)Nc1c2c(nn1-c1ccc(F)cc1)CSC2
 : -16% | -25%
Cc1cccc(C)c1NC(=O)CSc1nc2ccccc2c2nc(CCc3c(C)n[nH]c3C)nn12
 : 35%[activator] | -13%
COc1ccc(Nc2ncc3c(n2)CCN(C(=O)OC(C)(C)C)C3)cc1
 : -8% | 124%[activator]
CCCS(=O)(=O)c1ncc(Cl)c(C(=O)N(Cc2ccc(C)cc2)C2CCS(=O)(=O)C2)n1 (stereo unspecified)
 : u | u
C=C(C)COc1ccc2c(C)c(CC(=O)NCCc3ccc(S(N)(=O)=O)cc3)c(=O)oc2c1
 : 3.5µM* | 4µM*
COc1cccc(-c2nc(N3CCCC3)c3ccccc3n2)c1O
 : -5% | 13%
CC(C)C(=O)N1N=C(c2ccc(Cl)cc2Cl)CC1c1ccc2nccnc2c1 (stereo unspecified)
 : -11% | -5%
NC(=O)c1cc(Cc2ccccc2)sc1NC(=O)c1ccccc1
 : 6% | 219%[activator]
CC1=C(C(N)=O)C(c2ccc(C(C)C)cc2)n2nc(SCc3ccccc3)nc2N1 (stereo unspecified)
 : -2% | -12%
Cc1ccc(C(=O)NCC(=O)OCc2cc(=O)oc3cc(O)ccc23)cc1C
 : u | -2%
CCCCNC(=O)c1cnc2c(-c3ccc(OCC)c(OCC)c3)c(C)nn2c1-c1ccccc1
 : 10% | 11%
COC(=O)C1CCN(Cc2cc(=O)oc3c(C)c(C)ccc23)CC1
 : -4% | u
Nc1oc2ccccc2c(=O)c1-c1ccc(Br)cc1
 : -10% | 99%[activator]
C=CCc1c(C)nc(Nc2nc(C)c3ccc(C)cc3n2)[nH]c1=O
 : 2% | 2%
COc1ccc(Cn2ccn(CC(=O)Nc3cc(C)ccc3C)c(=O)c2=O)cc1
 : 12% | 11%
Cc1cc(C)cc(-n2ccn(Cc3ccccc3C)c(=O)c2=O)c1
 : 82%[activator] | -22%
COc1ccc(CNc2nc(SCc3ccc(Cl)cc3)nc3ccccc23)cc1
 : 2% | -13%
COc1ccc(C(=O)NCC(c2ccc(Cl)cc2)N2CCCCC2)cc1 (stereo unspecified)
 : -16% | -23%
CCOC(=O)c1cc(-c2ccccc2)n(-c2cccc(C(=O)Nc3cccc(C(C)=O)c3)c2)c1C
 : -7% | -14%
CCN(C(=O)C1CCCN(c2ncnc3c2nc2n3CCCCC2)C1)c1cccc(Cl)c1 (stereo unspecified)
 : u | u

# Whole records as entered above. Order of values: 2A Renilla	2A firefly
# Record of Cc1ccc(C(=O)NCC(=O)OCc2cc(=O)oc3cc(O)ccc23)cc1C = u	-2%
# Record of COc1ccc(/C=C(\C#N)c2nc3ccccc3[nH]2)cc1I = 277%[activator]	86%[activator]
# Record of COC(=O)C1CCN(Cc2cc(=O)oc3c(C)c(C)ccc23)CC1 = -4%	u
# Record of CC1=C(C(N)=O)C(c2ccc(C(C)C)cc2)n2nc(SCc3ccccc3)nc2N1 (stereo unspecified) = -2%	-12%

# Further compounds.
# Screens in order: 2A Renilla | 2A firefly
COc1ccc(-c2noc(COc3ccc(C)cc3C)n2)cc1OC
 : 7% | -2%
Cc1nc(-c2cccs2)c(CC(=O)N2CCc3ccccc3C2)s1
 : -3% | 12%
COC(=O)C(C#N)c1nc2ccccc2nc1N1CCN(Cc2ccccc2)CC1 (stereo unspecified)
 : -3% | 0%
CCCC(=O)Nc1ccc2oc(-c3cc(F)c(F)cc3Cl)nc2c1
 : 7% | 43%[activator]
O=C(Nc1cc(F)ccc1F)N1CCC2(CC1)Oc1ccccc1C(=O)N2Cc1ccccc1F
 : -10% | -22%
COc1ccc(Nc2ncnc3onc(C)c23)cc1Cl
 : 1% | 5%
Fc1ccc(Nc2c3c(nc4ccccc24)CCC3)cc1
 : -15% | 0%
CC(Cc1ccccc1)N(C)C (stereo unspecified)
 : -2%[1.06 µM] | -1%
Cc1nn(C)c2c1c(C(F)(F)F)cc(=O)n2CC(=O)N1CCCCC1
 : -11% | -17%
CCOC(=O)c1c(C)oc2nc(C)nc(N(CC(C)C)CC(C)C)c12
 : -12% | -16%
C=CCOc1ccc(NC(=O)c2ccccc2)cc1
 : 2% | 166%[activator]
Cc1ccc(NC(=O)Nc2cccc(C)n2)cc1
 : 33%[activator] | 98%[activator]
CC(Sc1ccc2ccccc2n1)C(=O)O (stereo unspecified)
 : 0% | -2%
CCCCN(C)C(=O)C1CCN(C(=O)/C=C/c2c(Cl)cccc2Cl)CC1
 : 36%[activator] | 12%
O=C1CN(CC(=O)Nc2cccc3ncccc23)CCN1
 : 0% | 8%
CCN(CC)S(=O)(=O)c1ccc(NC(=O)CN2C(=O)c3ccccc3S2(=O)=O)cc1
 : -11% | -15%
COc1cccc2sc(N3CCN(C(=O)CCS(=O)(=O)c4ccc(F)cc4)CC3)nc12
 : u | 35µM*
COc1ccc(C(=O)Nc2ccc3c(c2)OCCCO3)c(O)c1
 : 1% | 88%[activator]
C=CCn1c(=O)c2c(nc(-n3nc(C)c(C)c3C)n2CC(=C)C)n(C)c1=O
 : 9% | -11%
CC(=O)Nc1cccc(C(C)NC(=O)Nc2ccc(C(F)(F)F)cc2)c1 (stereo unspecified)
 : 47%[activator] | 0%
O=C(NCc1ccccn1)c1ccc2c(c1)CCC2
 : 13% | 10%
CCOC(=O)C1=C(C)OC(n2cccc2)=C(C#N)C1c1ccc(OC)c(OC)c1OC (stereo unspecified)
 : 15% | -3%
O=C(CSc1nc(-c2ccccc2)cc(=O)[nH]1)Nc1ccc(F)c(F)c1
 : -3% | 4%
Cn1nc(C(=O)Nc2sc3c(c2C#N)CCCC3)c(Cl)c1C(F)(F)F
 : -11% | 23%
O=CN1CCN(C(=O)c2cc(-c3cccs3)nc3ccccc23)CC1
 : 22% | 42%[activator]
CCN(CC)S(=O)(=O)c1ccc(C)c(NC(=O)c2ccc(OC(F)F)cc2)c1
 : -13% | -20%
Cc1cc(C)c(C)c(OCC(=O)Nc2ccc(S(=O)(=O)Nc3nc(C)cc(C)n3)cc2)c1
 : 24%&52% | 0%&0%
Cc1oc(-c2ccccc2)nc1CC(=O)N1CCOCC1(C)C
 : 4% | 0%
O=C(CSc1nc(=O)[nH]c2c1CCCC2)Nc1ccccc1C(F)(F)F
 : 10% | -20%
Cc1oc(-c2ccc(C(=O)NCc3ccccc3)cc2)nc1CS(=O)(=O)c1ccccc1
 : -3% | -19%
Cc1ccc(C)c(C(C)NC(=O)c2cccc(F)c2)c1 (stereo unspecified)
 : 0% | 1%
CCN(CC)CCNC(=O)c1[nH]c2ccccc2c1Sc1ccc(Cl)cc1
 : -1% | -15%
Cc1ccc(NC(=O)CCc2c(C)nc3ncnn3c2C)cc1Cl
 : -1% | -16%
CCCn1c(-c2ccc(OC(F)F)cc2)nc2c1c(=O)[nH]c(=O)n2Cc1ccccc1
 : 7% | 10%
Brc1ccc2nc(-c3ccccc3)c(Nc3ccc4c(c3)OCO4)n2c1
 : 2% | 8%
Cc1oc(-c2ccccc2)nc1CC(=O)Nc1ccccc1Cl
 : 32%[activator] | 0%
CC1=C(C#N)C(NC(=O)c2ccccc2Cl)(C(F)(F)F)C(=O)N1 (stereo unspecified)
 : -6% | -22%
Cc1noc(/C=C/c2ccccc2F)c1S(=O)(=O)N1CCC(C(=O)Nc2ccc(C#N)cc2)CC1
 : 6% | -14%
Cc1ccc(NC(=O)Cn2cc(C(=O)c3ccccc3)c3ccccc32)cc1
 : 3% | 29%
CCn1cc2nc(SCC(=O)N3CCCC3)n(Cc3ccc(C)cc3)c(=O)c2n1
 : 83%[activator] | 40%[activator]
CCc1ccc(Nc2c3c(nc4ccccc24)CCCC3)cc1
 : u | u
CC(C)COC(=O)C(C)Oc1ccc2c(=O)c(-c3ccccc3)coc2c1 (stereo unspecified)
 : 4% | 31%[activator]
CC(C)c1ccc(C(=O)N2CCN(C/C=C/c3ccccc3)CC2)cc1
 : u | u
CCOC(=O)CNC(=O)NCc1cccn1Cc1ccccc1
 : 2% | 1%
COc1cc(OC)cc(C(=O)/C(=C/c2ccccn2)c2nc3ccccc3o2)c1
 : u | u
CCOc1ccc(NC(=O)c2c(-n3cnnn3)sc(C)c2C)cc1
 : 19% | -10%
Cc1ccc2[nH]c3c(=O)n(CC(=O)N4CCCCC4)ncc3c2c1
 : -10% | -2%
O=C(O)C(c1c[nH]c2ccc(CO)cc12)N1CCN(CCNc2cc(=O)oc3ccccc23)CC1 (stereo unspecified)
 : 3% | 14%
O=C(NCc1cc2ccccc2[nH]1)c1cn[nH]n1
 : 9% | 71%[activator]
CCC(CC)C(=O)Nc1ccc(N(C)C)cc1
 : -14% | 0%
CCCCOc1cccc(C(=O)Nc2ccc(OCCC)c3ncccc23)c1
 : -11% | -4%
COc1ccc(-c2noc(CC(=O)Nc3ccc(F)cc3F)n2)cc1
 : -5% | -6%
COc1ccc(NC(=O)c2csc3c2CCCCC3)cc1
 : -6% | 42%[activator]
O=C(CCNS(=O)(=O)/C=C/c1ccccc1)Nc1ccc(Cl)cc1Cl
 : 220%[activator] | 7%
COc1ccc(CNC(=O)Cn2cccc2C(=O)c2ccccc2C)cc1
 : 0% | 22%
C=CCNC(=O)CCC1NC(=O)N(CCc2c[nH]c3ccc(F)cc23)C1=O (stereo unspecified)
 : -9% | 0%
Cc1ccc2oc(-c3ccc(Cl)cc3Cl)cc(=O)c2c1
 : 141%[activator] | 15%
Cc1cccc(CCNC(=O)CCc2c(C)nc3c(c(C)nn3-c3ccccc3)c2C)c1
 : 8% | 21%
Cc1ccc(SCCC(=O)NNC(=O)c2ccncc2)cc1
 : 51%[activator] | 30%
CCOC(=O)N1CCN(C(=O)c2c(C)nn(-c3cccc(C)c3)c2-n2cccc2)CC1
 : -11% | -11%

# Other records
# Screens in order: 2A Renilla | 2A firefly
O=C(NCCC1=CCCCC1)c1ccc2c(c1)N(Cc1ccccc1F)C(=O)c1ccccc1S2(=O)=O
 : -2% | -25%
COc1ccc(Cn2c(CCC(=O)Nc3ccc(C)cc3)nc3cccnc32)cc1
 : -7% | u
CCOc1cc(/C=C2/NC(=O)NC2=O)cc(Cl)c1O
 : 38%[activator] | 0%
CCS(=O)(=O)N1CC(=O)N(c2ccc(Cl)cc2)C(C)(C(=O)NC2CCCCCC2)C1 (stereo unspecified)
 : -10% | 19%
O=C(c1cc(-c2ccccc2)n[nH]1)N1CCN(C(=O)c2ccc(Br)o2)CC1
 : -1% | -2%
Cc1ccc(S(=O)(=O)N2CCC(C(=O)Nc3ccc(C)c(Cl)c3)CC2)cc1
 : -4% | -19%
O=C(Cn1c(=O)n(Cc2ccc(F)cc2)c(=O)c2sc3ccccc3c21)NCc1ccccc1Cl
 : -5% | -14%
Cc1cccc(NC(=O)CSc2ncc3c(n2)-c2ccccc2N(Cc2ccc(F)cc2)S3(=O)=O)c1C
 : -21% | -23%
O=C(CSc1nc2c([nH]c3ccccc32)c(=O)n1-c1ccccc1)Nc1ccccc1C(F)(F)F
 : -6% | -9%
Cn1nc(-c2ccccc2F)c2cc(C(=O)NCc3ccc(Cl)cc3)sc21
 : -15% | -4%
CCOC(=O)c1ccc(NC(=S)NCCNC(C)=O)cc1
 : 35%[activator] | 0%
Cc1cc(F)ccc1NC(=O)c1ccn(Cn2nnc(-c3ccccc3)n2)n1
 : -8% | 5%
COc1ccc(CNc2n[nH]c(-c3ccco3)n2)cc1OC
 : -3% | 5%
O=C(NCc1ccc(S(=O)(=O)N2CCOCC2)cc1)c1ccc(Cl)cc1O
 : 31%[activator] | 22%
Cc1ccc2nc(C(=O)N3CCN(c4ccccc4F)CC3)cn2c1
 : 10% | 30%
Cc1ccc(NC(=O)C(=O)c2c[nH]c3ccccc23)cc1F
 : 34%[activator] | 206%[activator]
CCOCCCn1c(=N)c(C(=O)NC(C)c2ccccc2)cc2c(=O)n3cc(C)ccc3nc21 (stereo unspecified)
 : -1% | 1%
CCc1ccc(NC(=O)Cn2nc(-c3ccc(C)c(S(=O)(=O)N4CCOCC4)c3)ccc2=O)cc1
 : 60%[activator] | 119%[activator]
CCc1ccc(S(=O)(=O)c2c[nH]c3cc(OC)c(OC)cc3c2=O)cc1
 : 11% | -7%
Cc1ccc(C(=O)N/N=C/c2cccc(C)c2)cc1
 : 20% | 221%[activator]
CCN(CC)CCNC(=O)Cn1ncc2c3ccccc3n(Cc3ccccc3C)c2c1=O
 : -13% | -20%
CCC(=O)N1CCc2cc(Br)cc(S(=O)(=O)N3CCCC(C(=O)Nc4ccc(CC)cc4)C3)c21 (stereo unspecified)
 : 64%[activator] | -4%
O=C(COc1ccc(Cl)cc1)NCCc1csc(-c2cccc(F)c2)n1
 : u | u
O/N=C1\CCCOc2ccc(Br)cc21
 : 2% | 15%
